Screening results (PubChem)
RE007 growth inh: less growth of the S. pombe RE007 Vpr strain. S. pombe RE007 Vpr strain, BacTiter-Glo ATP luminescence, 24 h; control for the full effect not named in the record. Potency, µM (top dose mostly 92.2 µM), for inactives: top-dose activity change, negative = less growth. actives 0.21% (n = 360,000). AID 651644; active = well fitted falling curve with a large enough effect; inconclusive = small, poorly fitted or top-dose-only effect; inactive = no such curve, though single readings can be large or run the other way;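 further: on the % scale 0 is the no-effect control and ±100 the full control effect; nearly all actives have a fitted effect of over 50% in size; the assay follows cell death caused by Vpr and the record does not say whether a fall means rescue or toxicity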
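Fission yeast strain RE007, carrying one chromosomally integrated HIV-1 vpr copy, was seeded at OD 0.01 in PMG+AL medium with 23 nL pinned compound. After 24 h at 30 °C and 99% humidity, viability was read by BacTiter-Glo luminescence.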
SARS PLP yeast: SARS-CoV PLP inhibition in yeast; S. cerevisiae expressing SARS-CoV PLpro, growth rescue; control for the full effect not named in the record; Potency, µM (doses to about 32.9 µM), without a hit: at the highest dose activity, positive = growth rescue; actives 0.19% (n = 330,000); AID 485353; active means well fitted rising curve with a large enough effect; inconclusive means small, poorly fitted or top-dose-only effect; inactive means no such curve, though single readings can be large or run the other way; further: 0% is about no effect; nearly all actives have a fitted effect of over 55% in size; growth read by luminescence after 48 h
Cruzain inh Det: inhibitors of Trypanosoma cruzi cruzain with detergent. AID 1478. actives 0.43% (n = 200,000). Potency, µM, without a hit: max response, negative = inhibition, actives largely listed as inhibitors. purified cruzain, Z-FR-AMC fluorescence, 0.01% Triton;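 further: plate controls were neutral wells for no effect and buffer without enzyme for full effect; nearly all actives have a fitted effect of over 40% in size; top concentration of the series not given in the record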
Target sequence (P25779 123-467 limits assumed): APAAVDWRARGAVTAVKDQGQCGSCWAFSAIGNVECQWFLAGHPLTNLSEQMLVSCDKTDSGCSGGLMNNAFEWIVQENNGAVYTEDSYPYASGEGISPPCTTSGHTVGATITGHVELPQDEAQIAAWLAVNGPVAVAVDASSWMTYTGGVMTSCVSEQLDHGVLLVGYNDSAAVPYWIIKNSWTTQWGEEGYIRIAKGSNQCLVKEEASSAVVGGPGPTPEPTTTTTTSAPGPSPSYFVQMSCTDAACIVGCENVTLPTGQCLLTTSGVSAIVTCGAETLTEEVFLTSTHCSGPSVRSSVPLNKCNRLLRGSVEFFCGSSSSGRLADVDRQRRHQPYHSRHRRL
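Compounds were screened in titration against cruzain (1.5 nM) with 0.01% Triton X-100 to counter colloidal aggregation. Activity was the AMC fluorescence increase over 60 s after adding 2 uM Z-FR-AMC at pH 5.5.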
MARV entry inh: blocks Marburg virus binding to or entry into cells; Marburg virus pseudotyped entry inhibition, cell reporter; control for the full effect not named in the record; about a third of the inactives were read at about 46 µM; Potency, µM (top dose mostly 37.8 µM), inactives show at the top dose activity change, negative = inhibition, actives largely listed as inhibitors; actives 1.8% (n = 300,000); active = well fitted inhibition curve with a large enough effect; inconclusive = small, poorly fitted or top-dose-only effect, or effect the other way; inactive = flat fitted curve, though single readings scatter; tested in HEK293 cells; about a fifth of its hits are not listed in these tables; further: on the % scale 0 is the no-effect control and ±100 the full control effect; luciferase read-out
Lassa entry inh: blocks Lassa virus binding to or entry into cells; Lassa virus pseudotype entry inhibition, cell reporter; control for the full effect not named in the record; AID 540256; actives 1.2% (n = 300,000); Potency, µM (doses to about 37.9 µM), inactives show at the highest dose activity change, negative = inhibition, usual class: inhibitors; active means well fitted inhibition curve with a large enough effect; inconclusive means small, poorly fitted or top-dose-only effect, or effect the other way; inactive means flat fitted curve, though single readings scatter; tested in HEK293 cells; further: on the % scale 0 is the no-effect control and ±100 the full control effect; nearly all actives have a fitted effect of over 50% in size; luciferase read-out
2A StopGo: FMDV 2A StopGo reporter, luciferase signal; human cells with a luciferase reporter of 2A StopGo recoding; control for the full effect not named in the record; Potency, µM (titrated, usually from 57.9 µM), without a hit: top-dose signal change, negative = less light; actives 1.2% (n = 410,000); active = well fitted falling curve with a large enough effect; inconclusive = small, poorly fitted or top-dose-only effect; inactive = no such curve, though single readings can be large or run the other way; tested in HEK293T cells; further: on the % scale 0 is the no-effect control and ±100 the full control effect; nearly all actives have a fitted effect of over 45% in size; luciferase light after 4 h
Cruzain inh noDet: blocks cruzain activity in detergent-free assay; P25779; AID 1476; Potency, µM, inactives show max response, negative = inhibition, usual class: inhibitors; purified cruzain, Z-FR-AMC fluorescence, no detergent; actives 2.3% (n = 200,000);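 further: plate controls were enzyme without inhibitor for no effect and buffer without enzyme for full effect; nearly all actives have a fitted effect of over 40% in size; top concentration of the series not given in the record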
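Detergent-free condition (0.00005% Triton X-100) in acetate buffer pH 5.5 with DTT. 1.5 nM enzyme and compound were pre-mixed 15 min, then 2 uM Z-FR-AMC substrate added; reaction progress from fluorescence change between first and third reads (60 s).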
NS1 inh: inhibitors of influenza NS1 protein function; S. cerevisiae slowed by influenza A NS1, growth recovery by OD600; Potency, µM (highest dose often 46.1 µM), without a hit: at the highest dose activity, positive = more growth; actives 0.4% (n = 270,000); AID 2326; active means well fitted rising curve with a large enough effect; inconclusive means small, poorly fitted or top-dose-only effect; inactive means no such curve, though single readings can be large or run the other way; further: nearly all actives have a fitted effect of over 50% in size
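Recovery from NS1-induced slow growth read by OD600 in budding yeast switched to galactose assay medium (pH 6.0, -URA) at 1:100 dilution. Compound 23 nl per well; the matching strain lacking NS1 serves as control.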
Starred values were filed as active, the others as inactive; & = joins results of further samples; [ ] = remark or other dose. Unless noted, the call rests on the fitted dose curve; in most records, active means well fitted curve in the direction sought with a large enough effect; inconclusive means small, poorly fitted or top-dose-only effect, or another doubt; inactive means no such curve, though single readings can be large; an effect the other way counts as inactive or inconclusive. Potency means the concentration at half of the fitted maximal effect.

Screening CC(C)CC(C(=O)O)N1C(=O)[C@@H]2[C@H](C1=O)[C@@H]1C[C@H]2C(Br)C1Br (stereo partly specified) returned RE007 growth inh -16%, SARS PLP yeast 7%, Cruzain inh Det -0.9%, MARV entry inh 19%, Lassa entry inh -2%, 2A StopGo -11%, Cruzain inh noDet -3% and NS1 inh 1%.
`C/C(=N\Nc1cc(N2CCOCC2)ncn1)c1ccccc1` gave RE007 growth inh 7%, SARS PLP yeast -7%, 2A StopGo 43%[activator] and NS1 inh 12%.
`CC(C)(C)CC(=O)N[C@@H](Cc1ccccc1)c1nc2ccccc2[nH]1` gave RE007 growth inh 1%, SARS PLP yeast -1%, MARV entry inh -7%[46.1 µM], Lassa entry inh -15%[46.1 µM], 2A StopGo -9% and NS1 inh -6%.
`O=S(=O)(c1ccc2nnn(O)c2c1)N1CCCCC1` gave RE007 growth inh 24%, SARS PLP yeast 2%, MARV entry inh 8%[46.1 µM], Lassa entry inh 2% and 2A StopGo 8%.
`CCCCCn1c(NC(=O)c2ccco2)c(C(=O)OCC)c2nc3ccccc3nc21` gave RE007 growth inh -1%, SARS PLP yeast -4%, Cruzain inh Det -12%, MARV entry inh 4.5µM*, Lassa entry inh inconclusive, 2A StopGo inconclusive, Cruzain inh noDet inconclusive and NS1 inh -4%.
Screening O=C(NC1CCCCC1)C(c1ccc(F)cc1)N(C(=O)Cc1ccsc1)c1ccc(F)cc1 (stereo unspecified) returned RE007 growth inh 12%, SARS PLP yeast 3%, Cruzain inh Det 7.1%, MARV entry inh -9%, Lassa entry inh 1%, Cruzain inh noDet -2% and NS1 inh 13%.
For Cc1ccc(N(C(=O)Cn2nnc(-c3ccccc3)n2)C(C(=O)NC2CCCCC2)c2ccccn2)cc1C (stereo unspecified) the results were SARS PLP yeast 11%, Cruzain inh Det -4.1%, MARV entry inh 0%, Lassa entry inh -1%, 2A StopGo -25%, Cruzain inh noDet -3% and NS1 inh 12%.
Cc1cc(NC(=O)CSc2nnc(C3COc4ccccc4O3)n2C)no1 (stereo unspecified) was read as RE007 growth inh -12%, SARS PLP yeast -3%, MARV entry inh 8%[46.1 µM], Lassa entry inh -6% and 2A StopGo 14%.
`N#C/C(=C/c1cccc([N+](=O)[O-])c1)c1nnc2n1CCCCC2` gave RE007 growth inh -7%, SARS PLP yeast 17%, Cruzain inh Det -1.1%, MARV entry inh inconclusive, Lassa entry inh -29%, 2A StopGo inconclusive, Cruzain inh noDet -5% and NS1 inh 3%.
`CCOC(CCNC(=O)c1cn(CCOC)c(=O)c2c1c1ccccc1n2C)OCC` gave RE007 growth inh -8%, SARS PLP yeast 11%, 2A StopGo -27% and NS1 inh -1%.
For Cc1cc(C)nc(N2CCCC(C(=O)NC(C)CCc3ccco3)C2)n1 (stereo unspecified) the results were RE007 growth inh 2%, SARS PLP yeast 0%, Cruzain inh Det -0.7%, MARV entry inh -26%, Lassa entry inh 5%, 2A StopGo -5%, Cruzain inh noDet 1% and NS1 inh -18%.
For O=C(c1ccncc1)N(c1ccc2oc3c(c2c1)CCCC3)S(=O)(=O)c1ccc(F)cc1 the results were RE007 growth inh 15%, SARS PLP yeast -30%, Cruzain inh Det -2.5%, MARV entry inh inconclusive, Lassa entry inh inconclusive, 2A StopGo -6%, Cruzain inh noDet -26% and NS1 inh 7%.
`CC(C)Nc1nc(NC(C)C)nc(N(C#N)CCOc2ccc(Cl)cc2Cl)n1` gave RE007 growth inh 19%, SARS PLP yeast -14%, Cruzain inh Det -11%, MARV entry inh inconclusive, Lassa entry inh inconclusive, 2A StopGo -30%, Cruzain inh noDet -8% and NS1 inh -3%.
`O=C(Nc1ccccc1)C1CC(O)CN1S(=O)(=O)c1ccc([N+](=O)[O-])cc1` (stereo unspecified) gave RE007 growth inh 19%, SARS PLP yeast 1%, 2A StopGo -5% and NS1 inh 1%.
`Cc1ccc2nc(/C(C#N)=C/c3ccc(-c4cccc([N+](=O)[O-])c4)o3)[nH]c2c1` gave RE007 growth inh 14%, SARS PLP yeast 2%, Cruzain inh Det -19%, MARV entry inh 5%, Lassa entry inh 2%, 2A StopGo 3%, Cruzain inh noDet inconclusive and NS1 inh inconclusive.
`COC(=O)c1sc(SC)nc1N` gave RE007 growth inh 27%, SARS PLP yeast 2%, MARV entry inh 1%[46.1 µM], Lassa entry inh 13%, 2A StopGo 27% and NS1 inh 3%.
For CC(=O)Nc1nnc(SCC(=O)NC2CCCC2)s1 the results were RE007 growth inh -14%, SARS PLP yeast 5%, MARV entry inh 1%[46.1 µM], Lassa entry inh 14%, 2A StopGo -17% and NS1 inh -2%.
For CCCCCC(=O)N(c1ccc(OCC)cc1)S(=O)(=O)c1ccc2c(c1)n(C)c(=O)n2C the results were Cruzain inh Det 0.3%, MARV entry inh inconclusive, Lassa entry inh -9%[46.1 µM], 2A StopGo inconclusive and Cruzain inh noDet -8%.
For NS(=O)(=O)c1ccc(Nc2nc(-c3ccc4ccccc4c3)cs2)cc1 the results were RE007 growth inh -16%, SARS PLP yeast 4%, Cruzain inh Det 1.2%, MARV entry inh -11%, Lassa entry inh inconclusive, 2A StopGo inconclusive, Cruzain inh noDet -8% and NS1 inh 8%.
`CCOc1ccc(NC(=O)c2oc3ccccc3c2NC(=O)Cc2cccc(C)c2)cc1` gave Cruzain inh Det -2.4%, MARV entry inh -2%[46.1 µM], Lassa entry inh 7%[46.1 µM], 2A StopGo -10% and Cruzain inh noDet -1%.
Screening Cn1c(SCC(=O)N2CCCc3ccccc32)ncc(C(=O)Nc2ccc(Cl)cc2)c1=O returned Cruzain inh Det -0.4%, Lassa entry inh 28%[46.1 µM], 2A StopGo 22% and Cruzain inh noDet 10%.
`Cc1ccc(NS(=O)(=O)c2ccc(-c3csc(C)n3)s2)c(C)c1` gave RE007 growth inh 28%, SARS PLP yeast -10%, MARV entry inh -1%, Lassa entry inh -20%, 2A StopGo -15% and NS1 inh -13%.
Screening O=C(CN1N=C(c2ccc(Cl)cc2)CCC1=O)NCc1ccc(F)cc1 returned Cruzain inh Det 2.2%, Lassa entry inh 11%[46.1 µM], 2A StopGo -12% and Cruzain inh noDet -2%.
Screening CN1CCN(C(=O)C2=C[C@@H](c3coc4ccccc4c3=O)C[C@@H](OCCCCO)O2)CC1 returned RE007 growth inh 1%, SARS PLP yeast 0%, 2A StopGo -9% and NS1 inh 4%.
For COc1ccc(-c2nnc(SCC(=O)NCCC(C)C)nc2-c2ccc(OC)c(OC)c2)cc1OC the results were RE007 growth inh 7%, SARS PLP yeast 1%, Cruzain inh Det -4.3%, MARV entry inh -27%[46.1 µM], Lassa entry inh inconclusive, 2A StopGo 0%&-8%, Cruzain inh noDet inconclusive and NS1 inh 7%.
Screening N#Cc1nc(COc2ccc(F)cc2)oc1NCCN1CCOCC1 returned RE007 growth inh 3%, SARS PLP yeast -2%, Cruzain inh Det 1.2%, MARV entry inh 14%, Lassa entry inh 2%, 2A StopGo 6%, Cruzain inh noDet 11% and NS1 inh -6%.
Screening Cc1nn(-c2ccc(N3CCCC3)nn2)c(C)c1CCC(=O)N1CCN(c2ccc(F)cc2)CC1 returned Cruzain inh Det 6.5%, Lassa entry inh -5%[46.1 µM], 2A StopGo 0% and Cruzain inh noDet 2%.
CNc1ccc(Br)cc(C(=O)/C=C/c2cc(OC)ccc2OC)c1=O was read as RE007 growth inh -13%, SARS PLP yeast inconclusive, Cruzain inh Det -22%, MARV entry inh inconclusive, Lassa entry inh inconclusive, 2A StopGo 20µM*, Cruzain inh noDet inconclusive and NS1 inh inconclusive.
`CCN(C(=O)COc1ncnc2ccc(Br)cc12)C1CCS(=O)(=O)C1` (stereo unspecified) gave RE007 growth inh 0%, SARS PLP yeast -1%, Cruzain inh Det 4.7%, MARV entry inh 33%, Lassa entry inh 2%, 2A StopGo -12%, Cruzain inh noDet -4% and NS1 inh -3%.
`COc1ccc(S(=O)(=O)N2CCN(C(=O)c3ccco3)CC2)c(C)c1C` gave RE007 growth inh 31%, SARS PLP yeast -2%, 2A StopGo -26% and NS1 inh -28%.
Screening Cc1cc(C)cc(-n2c(SCC(=O)N3CCc4ccccc43)nc3c([nH]c4ccccc43)c2=O)c1 returned Cruzain inh Det -1.6%, Lassa entry inh 19%[46.1 µM], 2A StopGo -7% and Cruzain inh noDet 8%.
`O=C(CN1C(=O)CSc2ccc(S(=O)(=O)N3CCOCC3)cc21)NCCCN1CCc2ccccc2C1` gave RE007 growth inh -17%, SARS PLP yeast -3%, MARV entry inh 1%, Lassa entry inh 3% and 2A StopGo -20%.
For COc1ccc(Cc2ccccc2C(=O)O)cc1 the results were RE007 growth inh 10%, MARV entry inh inconclusive, Lassa entry inh -5%[46.1 µM] and 2A StopGo -2%.
For CC(C)CNS(=O)(=O)c1cc2c3c(c1)CCC(=O)N3CCC2 the results were RE007 growth inh 0%, SARS PLP yeast 1%, 2A StopGo 0% and NS1 inh 9%.
For O=C(CCCc1c[nH]c2ccccc12)Nc1ccc(S(=O)(=O)Nc2ncccn2)cc1 the results were RE007 growth inh -8%, SARS PLP yeast 0%, MARV entry inh -5%[46.1 µM], Lassa entry inh 15%, 2A StopGo -10% and NS1 inh 0%.
`CCOc1ccc(NC(=O)CN2C(=O)CSc3ccc(S(=O)(=O)N4CCOCC4)cc32)cc1` gave RE007 growth inh -10%, SARS PLP yeast 5%, 2A StopGo 35%[activator] and NS1 inh -11%.
For COCc1ccc(C(=O)N2CCCC(Nc3ccc(F)c(F)c3)C2)s1 (stereo unspecified) the results were RE007 growth inh 15%, SARS PLP yeast 0%, MARV entry inh 28%, Lassa entry inh 4%, 2A StopGo -23% and NS1 inh -18%.
Screening O=C(COC(=O)c1ccc2c(c1)OCCO2)Nc1ccc(F)cc1F returned RE007 growth inh -6%, SARS PLP yeast -1%, MARV entry inh 29%, Lassa entry inh 1% and 2A StopGo 19%.
